FGF22 binding – FGF22 (human) thermal shift binding | Q9HCT0 | recombinant FGF22 thermal shift, SYPRO orange fluorescence; percent of sucrose octasulfate shift, DMSO zero | calls only at 9.99 µM | hit rate 1.5% among 340,000;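 active = melting point raised past a set limit in the mean and every replicate; inconclusive = no clear call; three in four hits are not shown here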
Target sequence (Q9HCT0 whole entry, looked up): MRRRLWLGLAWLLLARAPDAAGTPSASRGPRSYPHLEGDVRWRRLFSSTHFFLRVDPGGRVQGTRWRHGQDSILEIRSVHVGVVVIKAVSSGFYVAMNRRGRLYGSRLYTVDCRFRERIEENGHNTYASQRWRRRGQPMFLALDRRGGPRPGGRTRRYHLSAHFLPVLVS
MLL AF4-AF9 inh – blocks AF4 peptide binding to human AF9; inhibition, % at 10 µM; AlphaScreen, biotin-AF4 peptide binding to FLAG-AF9; AID 651704; hit rate 0.47% among 350,000; P42568;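 active = every replicate reaching a set inhibition limit, whatever the replicate mean, cut at about 25% in these data; inconclusive = mean inhibition reaches that limit but some replicates miss it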;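 also: 0% = plate neutral control median and 100% = total signal loss; the record names both 10 and 1 µM as test concentration; the first replicate is given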
Target sequence (P42568 whole entry, looked up): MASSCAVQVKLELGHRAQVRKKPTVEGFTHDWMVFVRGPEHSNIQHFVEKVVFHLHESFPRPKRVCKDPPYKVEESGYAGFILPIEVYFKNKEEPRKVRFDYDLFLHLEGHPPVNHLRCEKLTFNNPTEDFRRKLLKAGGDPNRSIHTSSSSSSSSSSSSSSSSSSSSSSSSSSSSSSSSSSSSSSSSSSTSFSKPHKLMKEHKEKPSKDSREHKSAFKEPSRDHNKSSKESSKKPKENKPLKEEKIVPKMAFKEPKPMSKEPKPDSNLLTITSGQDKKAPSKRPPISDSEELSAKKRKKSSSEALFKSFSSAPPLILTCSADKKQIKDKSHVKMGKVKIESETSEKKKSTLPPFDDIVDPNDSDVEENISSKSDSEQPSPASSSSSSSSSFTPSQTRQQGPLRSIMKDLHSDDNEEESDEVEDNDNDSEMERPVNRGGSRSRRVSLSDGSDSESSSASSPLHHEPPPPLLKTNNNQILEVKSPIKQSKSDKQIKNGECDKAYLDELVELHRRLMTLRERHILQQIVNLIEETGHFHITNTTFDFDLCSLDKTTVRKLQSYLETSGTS
T cruzi repl – blocks replication of Trypanosoma cruzi; inhibition, % (no concentration beside the values); hit rate 1.4% among 300,000; T. cruzi beta-gal in NIH3T3, luminescence, 90 h;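 active = mean inhibition across valid replicates above about 55%, limit read from the data; inconclusive = mean below that limit but half or more replicates reach it; inactive = mean below it, under half of replicates reach it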;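 also: signal also drops with host cell toxicity which is not excluded here; 0% = plate median of DMSO wells and 100% = zero luminescence signal; higher percent means less beta-gal luminescence so fewer parasites; stock transfer was 50 nL into about 50 µL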
Calb FLC – C. albicans growth modulation with fluconazole. C. albicans CaCi-2 (fluconazole-resistant clinical isolate) + fluconazole, Alamar Blue growth, 48 h. AID 1979. growth inhibition, % (test concentration not listed). hit rate 0.57% among 300,000;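 active = most replicates above 75%; inconclusive = exactly half above 75%; inactive = most below 75%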;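 also: all wells also contain fluconazole at 8 µg/ml as a sub-toxic cotreatment; 0% = median of DMSO wells and 100% = median of geldanamycin control wells; wells of about 8 µL received 7.5 nL stock; the first replicate is given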
ALR H2O2 inh – human ALR oxidase inhibition via reduced H2O2; P55789; purified ALR, DTT oxidation, H2O2 HRP-luminol luminescence; inhibition, % (no concentration beside the values); hit rate 3.8% among 290,000;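 active = mean and each replicate at 75% or more; inconclusive = only one of the two met; inactive = neither met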;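 also: stock transfer was 7.5 nL into about 7.5 µL; 0% = neutral wells and 100% = wells with inactivated enzyme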
Target sequence (P55789 whole entry, looked up): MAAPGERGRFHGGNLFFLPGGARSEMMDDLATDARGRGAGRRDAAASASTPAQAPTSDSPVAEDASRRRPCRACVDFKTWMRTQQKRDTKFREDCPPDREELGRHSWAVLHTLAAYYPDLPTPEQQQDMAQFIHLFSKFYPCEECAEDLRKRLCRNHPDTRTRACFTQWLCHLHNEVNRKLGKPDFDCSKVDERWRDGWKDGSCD
Beta cell apopt – blocks beta cell apoptosis; hit rate 0.8% among 300,000; INS-1E cytokine-induced death, ATP luminescence, 48 h; percent of positive-control rescue, neutral wells zero; protection from apoptosis, % (no concentration beside the values); AID 435005;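 active = all replicates at 75% or more, or half of them and the mean; inconclusive = half reach 75% but not the mean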;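 also: 0% = cytokine-treated negative control wells and 100% = positive control rescue; higher means more ATP so stronger rescue from cytokine killing; wells of about 40 µL received 100 nL stock; the first replicate is given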
Ecoli rRNA inh – selective bacterial rRNA inhibition in E. coli | GFP signal change (wild-type ribosome), % (test concentration not listed) | AID 720706 | E. coli WT GFP vs humanized-ribosome RFP mutants, fluorescence, 24 h; active compounds read low; DMSO median 0, no signal -100 | hit rate 1.6% among 350,000;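 active = significant combined selectivity score with lowered wild-type GFP, culture density cut under 30%, mutant RFP and density less affected; inactive = any of these conditions unmet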; also: one replicate is shown; some compounds called inactive have numbers as strong as hits
RanGTP-Impb inh – disruptors of Ran-importin-beta complex formation – biochemical, FRET, CFP-Ran, YFP-importin-beta, homogeneous, primary screen; cell-free CFP-Ran/YFP-importin-beta FRET ratio; inhibition, % (no concentration beside the values); hit rate 1.1% among 300,000; AID 2216;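 active = most replicates above 15%; inconclusive = exactly half above 15%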;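 also: 0% = DMSO wells and 100% = Ran loaded with GDP instead of GTP; wells of about 40 µL received 100 nL stock; the first replicate is given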
Ecoli rRNA inh OD600 – recorded beside Ecoli rRNA inh, whose call it bears; OD600 change, %; measured here: OD600 growth;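 optical density of the mix in the first replicate; 0 = DMSO median and -100 = no signal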
Ecoli rRNA inh RFP – second read-out of Ecoli rRNA inh, no call of its own (marks repeat the call); RFP signal change, %; measured here: RFP humanized mutant strains;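 first replicate; 0 = DMSO median and -100 = no signal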
The depositor's hits bear a star; i = inactive; u = inconclusive; x = no result given.

Under each structure – FGF22 binding, MLL AF4-AF9 inh, T cruzi repl, Calb FLC, ALR H2O2 inh, Beta cell apopt, Ecoli rRNA inh, Ecoli rRNA inh OD600, Ecoli rRNA inh RFP, RanGTP-Impb inh
CCOC(=O)c1c(C)[nH]c(C(=O)OCC(=O)c2ccc3c(c2)NC(=O)CO3)c1C
    i, -0.5, -14, -2, x, x, 1, 10, 2.7, 1.1
COCCNC(=S)N=Nc1c(O)[nH]c2ccc([N+](=O)[O-])cc12
    i, 7.5, -15, 22, x, 1, 6, 7, 1.2, -2.3
Cc1ccc(NC(=O)COC(=O)C2CC3CCCC(C2)C3=O)c([N+](=O)[O-])c1 (stereo not drawn)
    i, 3.5, x, x, -4, -2, -13, -8, 2.7, x
CC1=NNC(=O)C1Cc1c(Cl)cccc1Cl (stereo not drawn)
    i, -0.1, 6, -1, 14, x, -8, -1, 1.2, -1.5
COC(=O)C1=C(N)Oc2cc(C)n(CC3CCCO3)c(=O)c2C1c1ccc(Cl)c(Cl)c1 (stereo not drawn)
    x, x, 33, 9, 10, 3, x, x, x, -1.9
CC(C)C12CN3CC(C(C)C)(CN(C1)C3c1ccccc1O)C2=O (stereo not drawn)
    x, -2.9, -1, 3, -16, -10, x, x, x, 0.2
CCN(CC)CCCNC(=O)CN1C(=O)CSc2ccc(S(=O)(=O)N3CCOCC3)cc21
    x, -1.8, -13, 1, -1, -2, 14, 11, 0.0, -2.6
COCCN(C(=O)CSCC(=O)Nc1cccc(C)c1)c1c(N)n(Cc2ccccc2)c(=O)[nH]c1=O
    i, 3.5, -7, -5, 4, x, 3, 8, -0.7, 2.7
O=CNCc1nc2ccccc2n1CCCc1ccccc1
    i, 0.8, -11, 7, 0, -9, 10, -3, 3.9, 1.2
CCOC(=O)C1=NOC(CNC(=O)C2=NOC(CNC(=O)c3c(-c4ccccc4Cl)noc3C)C2)C1 (stereo not drawn)
    x, x, -12, -3, -3, -2, x, x, x, -1.8
Cc1cccc(N2CC(c3nc4ccccc4[nH]3)CC2=O)c1 (stereo not drawn)
    i, -8.2, -5, -8, -40, 10, -6, 1, -1.2, x
Cc1[nH]n(-c2ccccc2)c(=O)c1C(=O)c1cccc(F)c1
    x, -0.6, -12, -3, 4, 1, -27, -45, -11, 0.0
Cc1ccc(C2(C)NC(=O)N(CC(=O)NNC(=O)c3ccoc3C)C2=O)cc1 (stereo not drawn)
    i, -0.7, -11, 3, 0, 0, 10, 7, -0.7, 0.7
COc1cccc(-c2cc(C(=O)NCC3CCCO3)c3cc(Br)cc(C)c3n2)c1 (stereo not drawn)
    i, 0.5, 27, 6, -4, 9, 2, 8, -4.0, -1.8
O=c1c2c([nH]c3ccc(Br)cc13)CCCC2
    x, x, 7, -1, -9, 4, x, x, x, -0.8
O/N=C/Cc1[nH]c2ccccc2c1-c1ccccc1
    i, 5.3, 7, 0, 45, -1, -9, -41, -8.1, 9.4
COc1ccccc1N1CCN(CC(=O)c2c(C)[nH]c3cc(C)ccc23)CC1
    x, x, 15, -1, x, -15, x, x, x, 6.1
CC(=O)c1ccc2c(c1)C1C=CCC1C(c1cc3c(cc1Br)OCO3)N2 (stereo not drawn)
    i, 3.2, 18, -4, -7, 12, 4, -4, 0.5, -2.2
CC(C)CCSc1nnc(N)s1
    i, -0.4, -18, -5, 0, -7, 2, 1, -2.3, -1.4
CC(C)Cc1cc(C(=O)NCCCN2CCOCC2)no1
    i, 0.0, -5, 2, x, -2, 10, 9, -0.3, 1.4
NC1=NC(=Nc2ccc(S(N)(=O)=O)cc2)c2ccccc21
    i, 4.6, 5, -3, -5, -1, 7, -7, -8.9, -3.2
O=C(COC(=O)CNC(=O)c1ccccc1)Nc1ccc(S(=O)(=O)N2CCCC2)cc1
    i, -1.6, -6, 2, 2, 10, 8, 16, 4.5, 1.3
O=C(NCc1cc(C(F)(F)F)cc(C(F)(F)F)c1)C1CC(c2ccccc2[N+](=O)[O-])=NO1 (stereo not drawn)
    i, 7.9, 10, 10, 5, 2, -27, -58, -11, 1.8
COc1ccc(/C=N/NC(=O)CNC(=O)c2ccc(S(=O)(=O)N3CCOCC3)cc2)cc1OC
    x, x, -23, -10, -4, -8, x, x, x, 2.6
O=C(COc1ccccc1Cl)Nc1ccc(C(=O)N2CCCCC2)cc1
    i, -0.5, -4, 9, -7, x, -26, -38, -1.3, -2.5
O=C(/C=C/c1cccs1)NC1CCCC1
    i, 0.7, -15, 1, 19, x, 0, 6, -1.1, -0.3
O=C(OC(C(=O)NC1CCCCC1)c1ccccc1F)c1ccco1 (stereo not drawn)
    i, -2.2, -2, -18, x, 1, 3, -22, -1.7, 5.2
CCc1ccc(S(=O)(=O)Nc2ccc(N3CCN(C)CC3)cc2)cc1
    i, 7.0, x, 5, 45, 6, 1, -3, -0.3, 1.1
COc1ccc(NS(=O)(=O)c2ccc(C(=O)N3CCC(C)CC3)cc2)cc1
    i, -0.9, x, x, -2, 7, -1, -15, 3.3, x
Cc1cc(C)cc(OC(=O)c2cccnc2)c1
    i, -3.9, -14, -6, 1, -11, 2, 4, -2.6, -0.1
O=C(COc1ccc(S(=O)(=O)N2CCCC2)cc1Cl)NCc1ccccn1
    i, -0.8, -3, x, -5, 2, 8, 6, 0.5, x
Cc1nnc(SCc2cccc(CSc3nnc(C)s3)c2)s1
    x, x, 11, 9, -3, -1, x, x, x, 1.8
N#Cc1ccc(C(=O)Nc2cc(S(=O)(=O)N3CCOCC3)ccc2N2CCCC2)cc1
    i, -1.6, x, x, x, -12, 6, 7, -1.1, x
CC(C)N1CCN(Cc2ccsc2)CC1CCO (stereo not drawn)
    i, -7.5, -2, -6, -10, 0, 16, 24, 0.8, -2.8
Cc1cc(NC(=O)CN(C)CC(=O)Nc2ccc(Cl)cc2)no1
    i, 1.7, x, x, -1, -6, -7, -11, 2.5, x
CCC(C)NC(=O)CC(C)C (stereo not drawn)
    i, -21, 9, 0, -6, 1, -4, 4, -6.7, 1.4
CCOC(=O)Cc1csc(NC(=O)CC(C)(C)C)n1
    x, x, -2, -12, -15, 4, x, x, x, 3.8
CCOC(=O)N1CCN(c2c(NCCN3CCCCC3CC)c(=O)c2=O)CC1 (stereo not drawn)
    i, 3.6, -5, -20, 0, -3, 3, 0, -0.6, 6.9
CCOC(=O)N1CCC(N2CCN(CCC(C)C)C(CCO)C2)CC1 (stereo not drawn)
    i, -0.1, -7, 13, -5, -2, 15, 10, 0.2, -1.8
O=c1[nH]nc(-c2ccc(NCCO)c([N+](=O)[O-])c2)c2ccccc12
    i, -0.2, -13, -4, 1, 2, 2, -3, 0.1, -3.0
CCOC(=O)c1nn(-c2ccccc2)c(=O)c2c(NC(C)=O)scc12
    x, -0.1, 14, 7, -2, 4, 17, 16, 2.0, 1.3
COc1ccc(NC(=S)Nc2ccccn2)c(OC)c1
    x, x, 2, 3, x, -1, x, x, x, 4.9
CCCCOc1ccc(-n2nc(C)cc2C)nn1
    x, x, -8, -14, -16, -2, x, x, x, 0.3
Oc1ccc(/C=N/Nc2ccccc2)cc1
    i, 2.2, -3, 6, 59, -1, 4, 2, 0.1, 0.8
COc1ccc(OC)c(NC(=O)CN(C)CC(=O)Nc2ccccc2Cl)c1
    i, -9.3, 0, 7, -18, -3, -8, -6, 3.1, 2.7
CCCc1cc(=O)oc2cc(OCC(=O)NC(Cc3ccc(Cl)cc3)C(=O)O)ccc12 (stereo not drawn)
    i, -3.7, -8, 8, -3, -1, x, x, x, 0.0
Cc1cc(CN(C)C(=O)C2CCC(=O)N(CCc3ccccc3)C2)n[nH]1 (stereo not drawn)
    i, -0.8, -4, -13, -4, -3, 4, 13, 1.1, 1.0
COc1ccc([N+](=O)[O-])cc1NS(=O)(=O)c1cccc(C(=O)NCCCN2CCCC2=O)c1
    i, 2.5, x, x, -13, -5, 10, 0, 7.5, x
CCOC(=O)Cc1nnc(NC(=O)c2ccccc2OC)s1
    x, x, 9, 1, x, -11, x, x, x, 4.3
Cc1cc(=O)[nH]c(N/N=C/c2c(C)nn(-c3ccccc3)c2C)n1
    i, 0.1, -8, 20, 16, 5, -4, 2, -3.0, 0.6
Cc1ccccc1-n1c(C)cc(/C=C(\C#N)C(=O)NCC2CCCO2)c1C (stereo not drawn)
    x, x, 13, 19, 10, 2, x, x, x, -1.8
COc1ccc(C(=O)N/C(=C/c2cccnc2)C(=O)N2CCCCCC2)cc1OC
    i, 0.6, -23, 9, -1, -1, 4, 12, -2.1, -1.6
CCOC(=O)C1C(=O)OC(C)(C)C1C(CC)C(=O)c1ccccc1 (stereo not drawn)
    i, -0.6, 0, 17, 6, -5, 10, 2, 1.8, 5.4
O=C(Nc1cccc(C(=O)Nc2ccccc2F)c1)c1ccccc1
    i, 0.3, -11, -3, -4, 3, 8, 13, -1.9, -4.9
Cc1nc2scc(-c3ccccc3)c2c(=O)o1
    x, x, -21, 6, -8, -2, x, x, x, 0.5
Cc1scc(-c2n[nH]c(=S)n2Cc2ccccc2)c1C
    x, x, -15, -20, 4, x, x, x, x, -2.0
CN1CCN(S(=O)(=O)c2ccc3c(c2)oc(=O)n3C)CC1
    i, -1.2, -12, u, x, -2, 15, 12, 5.2, 3.7
CC1(C)Cc2nc(NC3CCCCC3)c(C#N)cc2CO1
    i, -0.6, 2, -2, 10, -2, -1, 9, -2.4, u
CCOC(=O)C1=C(C)NC(=S)N(C(C)=O)C1c1ccc(OC)c(OC)c1 (stereo not drawn)
    i, 0.0, -16, 2, -3, 5, 8, 7, -0.3, -2.1

High-throughput results: PubChem, Broad Institute

Only part of the results is shown. The share of hits here may be higher or lower than overall.
